Mtb growth – Mycobacterium tuberculosis H37Rv growth inhibition, cell based, confirmatory dose response (AID 1949) | M. tuberculosis H37Rv growth inhibition | most inactive calls were filed without a number and no value below 0 was filed | one-dose inhibition, % at 10 µg/mL; IC50 in µg/mL for titrated hits | actives 1.6% (n = 100,000);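 active = confirmed in a dose series; inconclusive = about 50% or more but not retested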;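 note: bacteria grown 7 days with compound before Alamar blue readout; 0% = untreated bacteria and 100% = reference antibiotic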
The depositor's hits bear a star; i = inactive; ? = inconclusive. An excerpt, so the mix of outcomes need not match the whole.

SMILES | Mtb growth
Cc1onc(-c2ccccc2Cl)c1C(=O)Nc1ncn[nH]1 | i
CCOC(=O)c1ccc(NC(=O)CSc2ncccn2)cc1 | i
COc1ccc(CN2CCN(Cc3cccn3C)CC2)c(OC)c1OC | 0%
CCn1c(=O)c([N+](=O)[O-])c(N2CCN(Cc3ccccc3)CC2)c2ccccc21 | i
Cc1nnc(Nc2cccc3ccccc23)c2ccccc12 | 25%
CCOc1ccc(C(=O)N2CCC(C(N)=O)CC2)cc1OCC | i
O=c1nc(N2CCCCC2)nc(Nc2cccc([N+](=O)[O-])c2)[nH]1 | i
COc1ccc(S(=O)(=O)NCCSCc2c(F)cccc2Cl)cc1OC | i
Cc1ccccc1C(=O)NCCOc1c(C)cccc1C | i
O=C1OCCN1C(O)c1ccccc1Cl (stereo unspecified) | i
COc1ccc(S(=O)(=O)N(Cc2ccccc2)c2ccc(C)cc2)cc1 | i
CSCCC(Nc1ncnc2ccc(Br)cc12)C(=O)O (stereo unspecified) | i
O=[N+]([O-])c1ccc(NC(=S)N2CCCCCC2)cc1 | i
CCOc1cccc(-c2nnc(SCC(=O)Nc3ccc(F)c(Cl)c3)n2N)c1 | i
CCCNC(=S)NC(=O)c1ccccc1 | i
CCOc1ccc(N2C(=O)CC(NNC(=O)Cc3ccccc3)C2=O)cc1 (stereo unspecified) | i
CC(C)c1ccc(NC(=O)CN(c2ccccc2F)S(C)(=O)=O)cc1 | i
C=CCOc1c(Cl)cc(CNc2ccc(S(N)(=O)=O)cc2)cc1OC | i
CC(=O)Nc1cccc(NC(=O)c2ccc(Cl)s2)c1 | i
COC(=O)C1=CN(c2ccccc2)C=C(C(=O)OC)C1c1cc(C)ccc1C | 3%
O=C(NCc1ccccn1)Nc1cccc(Cl)c1 | i
NS(=O)(=O)c1ccc(NC(=S)Nc2cc(Cl)c(Cl)cc2Cl)cc1 | i
COC(=O)c1c(NC(=O)c2c(-c3ccccc3)noc2C)sc2c1CCC(C)C2 (stereo unspecified) | i
CC(C)Cn1cnc2scc(-c3ccc(Br)cc3)c2c1=O | 29%

Brought forward from above: 3 compounds; new compounds follow.
SMILES | Mtb growth
NS(=O)(=O)c1ccc(NC(=S)Nc2cc(Cl)c(Cl)cc2Cl)cc1 | i
COC(=O)c1c(NC(=O)c2c(-c3ccccc3)noc2C)sc2c1CCC(C)C2 (stereo unspecified) | i
CC(C)Cn1cnc2scc(-c3ccc(Br)cc3)c2c1=O | 29%
Fc1c(F)c(F)c(Cn2ccc(NC(=S)Nc3ccccc3C(F)(F)F)n2)c(F)c1F | i
Cc1ccc(S(=O)(=O)c2nc(S(=O)(=O)c3ccc(C)cc3)c(N3CCCC3)s2)cc1 | i
O=C(CCc1ccccc1)Nc1nc(-c2cccc([N+](=O)[O-])c2)cs1 | i
COc1ccc(S(=O)(=O)N2CCC(C(=O)NCCCO)CC2)cc1OC | 4%
O=C(Nc1sc2c(c1C(=O)NCc1ccccc1)CCCC2)c1ccccc1[N+](=O)[O-] | 3%
CC(C)(C)NC(=O)Cn1c(-c2nonc2N)nc2ccccc21 | i
CCC(=O)n1nc(-c2ccc(OC)cc2)nc1SCc1ccccc1 | 11%
CC1(C)CC(NC(=O)CC(c2ccc(F)cc2)c2ccco2)CCO1 (stereo unspecified) | i
COc1cccc(C(=O)Nc2ccc(C(F)(F)F)cc2)c1 | i
COc1ccc(OC)c(C(O)c2nccn2C)c1 (stereo unspecified) | i
Cc1cc(OCc2ccccc2)c2c3c(c(=O)oc2c1)CCCC3 | i
Cc1ccccc1Cn1c(-c2ccccc2)nc2ccccc21 | 25%
Cc1cc(C)c(NC(=O)C2CC(=O)N(C(C)C)C2)c(C)c1 (stereo unspecified) | i
CC(Oc1cccc(Cl)c1)C(=O)N1CCCc2ccccc21 (stereo unspecified) | 4%
COc1cccc(OC)c1C(=O)Nc1cccc([N+](=O)[O-])c1 | i
Cc1cc(Br)cc(C)c1NC(=O)CSc1nnc(COc2ccc(C(C)C)cc2)n1C | i
O=C(NC(=S)Nc1ccc(O)cc1)c1ccccc1Cl | i
Cc1cc(C)nc(SCC(=O)NNC(=O)c2ccccc2C)n1 | i
COC(=O)Cc1cc(=O)[nH]c(Nc2nc3ccccc3s2)n1 | i
CCCc1cc(=O)n2[nH]c(-c3ccccc3)nc2n1 | i
COc1cc([N+](=O)[O-])ccc1NC(=O)n1cc(C)cn1 | i
CCC(NC(=O)c1cc2cc(Cl)ccc2oc1=O)c1ccccc1 (stereo unspecified) | i
CC(C)CNC(=O)c1ccccc1NC(=O)CN(c1ccc(I)cc1)S(C)(=O)=O | i
O=C(Nc1ccccc1)c1ccccc1OCc1ccc(F)cc1 | i
C=CCn1c(SCC(=O)N2CCCCCC2)nc2scc(-c3ccco3)c2c1=O | i
COC(=O)c1ccccc1NC(=O)CN1C(=O)C2C3C=CC(C3)C2C1=O (stereo unspecified) | i
O=S1(=O)N=C(Nc2nnc(SCc3ccccc3Cl)s2)c2ccccc21 | i
CCCCC(CC)C(=O)NC12CC3CC(CC(C3)C1)C2 (stereo unspecified) | i
O=C(Nc1c(Cl)cc(Cl)cc1C(=O)N1CCN(CCO)CC1)c1ccc(Cl)cc1Cl | i
Cc1c(CNC(=S)Nc2cccc([N+](=O)[O-])c2)cnn1C | 0%
CCCC(=O)N1CCN(c2ccc(NC(=O)c3ccc(OCc4ccccc4)cc3)cc2)CC1 | i
COc1ccc(CCNC(=O)CN(c2ccc(I)cc2)S(C)(=O)=O)cc1 | i
COc1ccccc1OC(C)C(=O)NNC(=S)NC1CCCC1 (stereo unspecified) | 3%
COc1ccccc1OCCN1C(=O)C(=O)c2cc(Br)ccc21 | i
COc1ccc(-n2c(SCC(=O)Nc3ccc(Cl)c(C(F)(F)F)c3)nnc2-c2ccncc2)cc1 | i
CN(c1ccc(C(=O)N2CCN(Cc3ccccc3)CC2)cc1)S(=O)(=O)c1ccccc1 | i
CC1CCN(C(=O)c2sc3cc(Cl)ccc3c2Cl)CC1 | 3%
O=c1[nH]c(NCc2ccccc2)nc2c1CCCC2 | i
CS(=O)(=O)N1CCN(c2ccc(NC(=S)NC(=O)c3cccs3)cc2)CC1 | 0%
Cc1n[nH]c(C)c1CCCCOc1ccccc1F | 22%
O=c1oc(-c2ccccc2Br)nc2sc3c(c12)CCCC3 | 0.98µg/mL*
O=C(CN(c1ccc2c(c1)OCCO2)S(=O)(=O)c1ccccc1)N1CCN(Cc2ccccc2)CC1 | 6%
CCCCn1c(SCC(N)=O)nc2c1c(=O)n(C)c(=O)n2C | i
Cc1cc(C)nc(NC(=O)CCSCCC(=O)Nc2cc(C)cc(C)n2)c1 | i
O=C(Nc1ccc([N+](=O)[O-])cc1)Nc1ccc2c(c1)OCCO2 | i
Cc1cc(NC(=S)NC(=O)c2cc3ccccc3o2)cc(-c2nc3ccccc3s2)c1O | i
COC(=O)C1CCN(C(=O)c2c(-c3ccccc3Cl)noc2C)CC1 | i
COC(=O)c1ccccc1NC(=O)CN1CCOCC1 | i

The final four records of the part before are carried over, then new ones follow.
SMILES | Mtb growth
O=C(Nc1ccc([N+](=O)[O-])cc1)Nc1ccc2c(c1)OCCO2 | i
Cc1cc(NC(=S)NC(=O)c2cc3ccccc3o2)cc(-c2nc3ccccc3s2)c1O | i
COC(=O)C1CCN(C(=O)c2c(-c3ccccc3Cl)noc2C)CC1 | i
COC(=O)c1ccccc1NC(=O)CN1CCOCC1 | i
CCCC(=O)NC(c1ccc(N(CC)CC)cc1)c1cc(Cl)c2cccnc2c1O (stereo unspecified) | 0%
O=C(O)CSCC(=O)c1ccccc1 | i
COC(=O)Cc1ccc(NC(=S)N2CCN(Cc3ccccc3)CC2)cc1 | i
OC(COc1ccc2ccccc2c1)CN1CCN(c2ccc(F)cc2)CC1 (stereo unspecified) | 5%
CC(=O)NC(=S)Nc1ccc(NC(=O)COc2ccccc2[N+](=O)[O-])cc1 | i
Cc1cccc(OCC(O)CN2C(C)(C)CC(O)CC2(C)C)c1C (stereo unspecified) | i
COc1cc(-c2nnc(-c3ccccc3Br)o2)cc(OC)c1OC | i
O=C(NC(=S)Nc1ccc2oc(-c3cc(F)c(F)cc3Cl)nc2c1)c1cc2ccccc2o1 | i
COc1ccc(Cl)cc1NC(=O)COc1cc(C)c(Br)c(C)c1 | i
CC(C)(C)c1ccc(C(=O)N2N=C(c3ccccc3)CC2(O)C(F)(F)F)cc1 (stereo unspecified) | ?
COc1ccc(OC)c(CN2CCN(Cc3ccccc3[N+](=O)[O-])CC2)c1 | 1%
O=C(CCc1ccc(S(=O)(=O)NC2CCCCC2)cc1)Nc1ccc2c(c1)OCCO2 | i
CN(CC(=O)Nc1cccc(Br)c1)S(=O)(=O)c1ccccc1 | i
CCN(c1ccccc1)S(=O)(=O)c1cc(OC)ccc1OC | 2%
Clc1ccccc1-c1nnc2sc(C3COc4ccccc4O3)nn12 (stereo unspecified) | i
Cc1ccc(NC(=O)c2cccc3ccccc23)nc1 | 32%
O=C(Nc1ccc(-c2nc3ccccc3c(=O)o2)cc1)c1ccccc1I | 0.37µg/mL*
COc1ccc(C(=O)NCC2(c3ccc(OC)c(OC)c3)CCCC2)cc1OC | i
CS(=O)(=O)N(CC(=O)Nc1cc(Cl)c(Cl)cc1Cl)C1CCCCC1 | i
Cc1cc(C)cc(N(C(C)C(=O)O)S(C)(=O)=O)c1 (stereo unspecified) | i
Cc1ccc(F)c(NS(=O)(=O)Cc2ccccc2)c1 | i
CCCOc1c(OC)cccc1C1NC(=S)NC(C)=C1C(=O)Nc1ccc(C)cc1 (stereo unspecified) | i
C=CCn1c(SCc2ccc(F)cc2)nnc1C(C)NC(=O)c1ccccc1 (stereo unspecified) | i
Cc1ccc(C(=O)c2nc3c(n2O)CCCC3)cc1 | i
CCCCc1ccc(NC(=S)NCCCN2CCOCC2)cc1 | i
COc1ccc(C(=O)N2CCN(S(C)(=O)=O)CC2)cc1OC | i
CCN(CC)S(=O)(=O)c1ccc(OC(C)C)nc1 | i
CCOc1cc(/C=C(\C#N)c2nn(CCO)c(N)c2C#N)ccc1OCc1ccccc1F | i
CCC1(C)Cc2ccccc2-c2nc3[nH][nH]c(=S)n3c(=O)c21 (stereo unspecified) | i
CC1(C)Cc2ccccc2C(CC(=O)N2CCCCCC2)=N1 | 4%
O=C(CC12CC3CC(CC(C3)C1)C2)Nc1ccc(Nc2ccccc2)cc1 | 17%
Cc1nc([N+](=O)[O-])cn1Cc1ccc(Cl)cc1 | i
Cc1cc(C)c(NS(=O)(=O)c2ccc(NC(=O)Nc3ccc(Cl)cc3)cc2)c(C)c1 | i
O=C(Nc1ccc(-c2nnc(-c3ccco3)o2)cc1)c1ccc(Cl)c(Cl)c1 | i
COC(=O)c1ccccc1NC(=S)NC(C)=O | i
CCC(Oc1ccccc1)C(=O)N1CCC(Cc2ccccc2)CC1 (stereo unspecified) | 5%
O=C(Nc1ccc(C(=O)N2CCOCC2)cc1)c1ccccc1Cl | 7%
COc1cc(NC(=O)COc2ccccc2Cl)ccc1NC(=O)c1cc2ccccc2o1 | i
COc1cc(C2C3=C(CCCC3=O)NC3=C2C(=O)CCC3)cc(Br)c1O | i
CCSc1nc2cc(OC)c(OC)cc2c(=O)n1CC | i
COc1cc(NC(=O)Nc2ccc(F)cc2F)cc(OC)c1 | i
COc1ccccc1OCc1n[nH]c(=S)n1-c1ccccc1 | 7%
COc1ccc(C(=O)NCc2nnc(SCC(=O)Nc3nc(-c4ccc(C)cc4)cs3)n2C)cc1 | 1%
Cc1ccc(S(=O)(=O)N(CC(=O)N2CCN(c3ccccc3)CC2)Cc2cccc(Cl)c2)cc1 | i
CC(=O)c1cc2c(cc1NS(=O)(=O)c1ccc(C)cc1)OCCO2 | 1%
c1ccc(CCNc2nc(-c3cccnc3)cs2)cc1 | ?
CC1(CNC(=O)c2ccc(Cl)cc2Cl)C2CC3CC(C2)CC1C3 (stereo unspecified) | i
O=C(Nc1ccc(F)c(F)c1)c1ccc(CSc2ccccc2)cc1 | i
O=C(CSc1nccn1Cc1ccccc1)Nc1ccc(Cl)cc1 | i
CN(C)C(=O)N1CCN(C(=O)c2ccccc2)CC1 | i
CCc1c(C)sc(NC(=O)c2cc(Cl)ccc2OC)c1C(=O)OC | 1%
Cc1cc(NC(=O)C2c3ccccc3Oc3ccccc32)ccc1Br | 2%
Cc1ccc(SCC(=O)Nc2ccccc2Cl)cc1 | i
CC(C)CC(=O)NC(=S)Nc1cc(S(=O)(=O)N2CCCC2)ccc1Cl | i
CS(=O)(=O)N(CC(=O)Nc1cccc([N+](=O)[O-])c1)c1cc(Cl)ccc1Cl | i
Cc1ccc(S(=O)(=O)NCCCC(=O)N2CCOCC2)cc1 | i
Cc1nc(N)sc1-c1csc(Nc2cccc(Cl)c2)n1 | 7%
CC(=O)c1c(C)nc2ccccc2c1-c1ccc(Cl)cc1 | 2%
CC(C)(C)c1ccc(OCCN2C(=O)C(=O)c3cc(Br)ccc32)cc1 | 1.5µg/mL*
CN(CC(=O)Nc1ccccc1F)S(=O)(=O)c1ccccc1 | i

Two consecutive entries already listed:
SMILES | Mtb growth
CC(C)(C)c1ccc(OCCN2C(=O)C(=O)c3cc(Br)ccc32)cc1 | 1.5µg/mL*
CN(CC(=O)Nc1ccccc1F)S(=O)(=O)c1ccccc1 | i

Going on with the list.
SMILES | Mtb growth
COc1cccc(NC(=O)CN(c2cc(Cl)ccc2OC)S(C)(=O)=O)c1 | i
CCCc1c(C)nc2ccccc2c1SCC(=O)O | i
CN(CC(=O)N1CCc2ccccc2C1)S(=O)(=O)c1cc(Cl)ccc1Cl | 2%
COc1ccc(N(CC(=O)Nc2cccc3ccccc23)S(C)(=O)=O)cc1 | i
CC(C)(Oc1ccc(Cl)cc1)C(=O)NCc1cccnc1 | i
O=C(CN1C(=O)c2ccccc2S1(=O)=O)Nc1ccccc1F | i
Cc1cccc(C(=O)Nc2sc3c(c2C(=O)NCC2CCCO2)CCC3)c1 (stereo unspecified) | i
N#CSc1ccc(NC(=O)c2ccccc2F)c(Cl)c1 | i

Two entries from above in a different format.
> CN(CC(=O)N1CCc2ccccc2C1)S(=O)(=O)c1cc(Cl)ccc1Cl
  Mtb growth: 2%

> COc1ccc(N(CC(=O)Nc2cccc3ccccc23)S(C)(=O)=O)cc1
  Mtb growth: i
